Vaccinia stage – blocks a specific stage of Vaccinia orthopoxvirus infection, primary screen, cell-based, single point. Vaccinia-infected cells, mCherry/Venus stage reporter fluorescence; stronger effect = lower value; some inactives read as strong as hits. activity change (mCherry), % (concentration not given with the values). 89,000 compounds, 0.01% hits;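 active means mCherry past -33% and 40 or more points under the early reporter, replicates agreeing; inconclusive means past -33% without that gap or agreement; tested in A549 cells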;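 further: scaled between vehicle wells and reference inhibitor wells; 23 nL library stock went into each well; one replicate is shown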
Vaccinia stage Venus – recorded beside Vaccinia stage, whose call it bears; activity change (Venus), %; measured here: Venus reporter, other viral stage;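 negative = less Venus signal; first of two replicates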
Starred values were filed as active, the others as inactive; & = joins results of further samples.

How did C[C@H](CO)N1C[C@H](C)[C@H](CN(C)S(=O)(=O)c2cccs2)Oc2ccc(NC(=O)c3ccncc3)cc2C1=O do in these assays?
Vaccinia stage: 21.8; Vaccinia stage Venus: 6.8

How did C[C@@H]1CN([C@H](C)CO)C(=O)CCCn2nncc2CO[C@H]1CN(C)Cc1ccc2c(c1)OCCO2 do in these assays?
Vaccinia stage: 1.1&1.1; Vaccinia stage Venus: 3.7&-1.2

What do the screens show for `C/C=C/c1ccc([C@H]2[C@@H](CO)N(C(=O)CN(C)C)C23CN(C(=O)C2CCCCC2)C3)cc1`?
Vaccinia stage: -20.8; Vaccinia stage Venus: -7.4

What do the screens show for `COc1cccc(CN(C)C[C@H]2OCc3ccccc3-c3ccccc3C(=O)N([C@H](C)CO)C[C@@H]2C)c1`?
Vaccinia stage: -30.2; Vaccinia stage Venus: -26.8

How did COCCNC(=O)C[C@@H]1CC[C@H]2[C@@H](COC[C@H](O)CN2C(=O)Nc2ccc3c(c2)OCO3)O1 do in these assays?
Vaccinia stage: -1.1; Vaccinia stage Venus: -1.5

How did C[C@H](CO)N1C[C@H](C)[C@H](CN(C)CC2CC2)Oc2ccc(NS(=O)(=O)c3cccs3)cc2C1=O do in these assays?
Vaccinia stage: 10.4; Vaccinia stage Venus: 7.7

How did C[C@@H](NC(=O)C[C@@H]1CC[C@H]2[C@H](COc3ccc(NS(=O)(=O)c4ccc(Cl)cc4)cc3C(=O)N2C)O1)c1ccccc1 do in these assays?
Vaccinia stage: -30.9; Vaccinia stage Venus: -19.9

What do the screens show for `COCC#Cc1cnc2c(c1)C(=O)N([C@@H](C)CO)C[C@H](C)[C@@H](CN(C)C(=O)c1ccc(F)cc1)O2`?
Vaccinia stage: 4.4; Vaccinia stage Venus: 3.7

How did CCCC(=O)Nc1ccc2c(c1)OC[C@@H](C)N(Cc1cccc(F)c1)C[C@@H](C)[C@H](OC)CN(C)C2=O do in these assays?
Vaccinia stage: -22.7; Vaccinia stage Venus: -10.7

How did C/C=C/c1ccc(C2[C@H]3CNC[C@@H]2N3S(=O)(=O)c2cccc(F)c2)cc1 (stereo partly specified) do in these assays?
Vaccinia stage: -3.7; Vaccinia stage Venus: -15.4

What do the screens show for `C[C@H]1CN([C@@H](C)CO)S(=O)(=O)c2ccc(C#CCN(C)C)cc2O[C@H]1CN(C)Cc1ccccn1`?
Vaccinia stage: 0.9; Vaccinia stage Venus: -3.3

What do the screens show for `CC(=O)N(C)C[C@H]1Oc2cc(-c3ccc(C#N)cc3)ccc2S(=O)(=O)N([C@H](C)CO)C[C@@H]1C`?
Vaccinia stage: 12.2; Vaccinia stage Venus: 7.4

Results for O=C(Nc1ccccc1)N[C@@H]1CC[C@@H](CCNS(=O)(=O)c2ccccc2F)O[C@@H]1CO ?
Vaccinia stage: -3.7; Vaccinia stage Venus: -4.2

What do the screens show for `CCCC#Cc1ccc2c(c1)O[C@@H](CN(C)CC1CCOCC1)[C@H](C)CN([C@H](C)CO)S2(=O)=O`?
Vaccinia stage: inconclusive

Results for COc1ccc(CN(C)C[C@H]2Oc3c(NS(=O)(=O)c4cn(C)cn4)cccc3C(=O)N([C@@H](C)CO)C[C@H]2C)cc1 ?
Vaccinia stage: 10.4; Vaccinia stage Venus: 2.7

What do the screens show for `COc1ccc(S(=O)(=O)N(C)C[C@@H]2Oc3c(NC(=O)NC(C)C)cccc3C(=O)N([C@H](C)CO)C[C@@H]2C)cc1`?
Vaccinia stage: 3.1; Vaccinia stage Venus: -5.4

What do the screens show for `CNC[C@@H]1Oc2c(NC(=O)C3CCCCC3)cccc2C(=O)N([C@@H](C)CO)C[C@@H]1C`?
Vaccinia stage: 6.8; Vaccinia stage Venus: 6.0

Results for O=C(C[C@H]1C=C[C@@H](NC(=O)Nc2ccc(F)cc2)[C@H](CO)O1)NCc1cccc(F)c1 ?
Vaccinia stage: -3.3; Vaccinia stage Venus: 5.2

How did O=C(Cc1cccnc1)N1CC(=O)N2[C@@H](CO)[C@@H](c3ccc(C#CC4CCCC4)cc3)[C@@H]2C1 do in these assays?
Vaccinia stage: inconclusive

How did C[C@@H]1CN([C@H](C)CO)C(=O)c2cc(C3=CCCCC3)cnc2O[C@H]1CN(C)C(=O)Nc1cccc(F)c1 do in these assays?
Vaccinia stage: -15.5; Vaccinia stage Venus: -14.3

What do the screens show for `O=C(C[C@H]1CC[C@@H]2[C@H](COC[C@@H](O)CN2C(=O)c2ccccc2F)O1)NCc1ccc(F)cc1`?
Vaccinia stage: 28.8; Vaccinia stage Venus: 15.7

What do the screens show for `CN(C)CC(=O)N1[C@H](CO)[C@@H](c2ccccc2)C12CN(C(=O)C1CCCC1)C2`?
Vaccinia stage: 5.3; Vaccinia stage Venus: 1.4

How did CN(C)CCCNC(=O)C[C@@H]1CC[C@H]2[C@@H](COC[C@@H](O)CN2CC2CCCCC2)O1 do in these assays?
Vaccinia stage: -8.5; Vaccinia stage Venus: -10.4

What do the screens show for `O=C(c1cccc(F)c1)N1CCCCN2[C@H](CO)[C@H](c3ccc(C#CC4(O)CCCC4)cc3)[C@@H]2C1`?
Vaccinia stage: -9.1; Vaccinia stage Venus: -10.5

Already shown: 7 of the compounds above.
Results for O=C(Nc1ccccc1)N[C@@H]1CC[C@@H](CCNS(=O)(=O)c2ccccc2F)O[C@@H]1CO ?
Vaccinia stage: -3.7; Vaccinia stage Venus: -4.2

What do the screens show for `CCCC#Cc1ccc2c(c1)O[C@@H](CN(C)CC1CCOCC1)[C@H](C)CN([C@H](C)CO)S2(=O)=O`?
Vaccinia stage: inconclusive

Results for COc1ccc(CN(C)C[C@H]2Oc3c(NS(=O)(=O)c4cn(C)cn4)cccc3C(=O)N([C@@H](C)CO)C[C@H]2C)cc1 ?
Vaccinia stage: 10.4; Vaccinia stage Venus: 2.7

What do the screens show for `COc1ccc(S(=O)(=O)N(C)C[C@@H]2Oc3c(NC(=O)NC(C)C)cccc3C(=O)N([C@H](C)CO)C[C@@H]2C)cc1`?
Vaccinia stage: 3.1; Vaccinia stage Venus: -5.4

What do the screens show for `CNC[C@@H]1Oc2c(NC(=O)C3CCCCC3)cccc2C(=O)N([C@@H](C)CO)C[C@@H]1C`?
Vaccinia stage: 6.8; Vaccinia stage Venus: 6.0

Results for O=C(C[C@H]1C=C[C@@H](NC(=O)Nc2ccc(F)cc2)[C@H](CO)O1)NCc1cccc(F)c1 ?
Vaccinia stage: -3.3; Vaccinia stage Venus: 5.2

How did O=C(Cc1cccnc1)N1CC(=O)N2[C@@H](CO)[C@@H](c3ccc(C#CC4CCCC4)cc3)[C@@H]2C1 do in these assays?
Vaccinia stage: inconclusive

Continuation:
What do the screens show for `C[C@H]1CN([C@@H](C)CO)S(=O)(=O)c2ccc(-c3ccc(C#N)cc3)cc2O[C@@H]1CN(C)C(=O)C1CC1`?
Vaccinia stage: 1.3; Vaccinia stage Venus: -6.0

Results for COc1ccc(C#Cc2ccc([C@@H]3[C@@H](CO)N4CCCCN(S(=O)(=O)c5ccccc5)C[C@@H]34)cc2)cc1 ?
Vaccinia stage: 20.2; Vaccinia stage Venus: 8.8

How did C/C=C/c1ccc2c(c1)O[C@H](CN(C)C(=O)CC1CC1)[C@H](C)CN([C@@H](C)CO)S2(=O)=O do in these assays?
Vaccinia stage: 3.7; Vaccinia stage Venus: 1.2

How did COc1cccc(NC(=O)N(C)C[C@H]2Oc3ncc(C#Cc4ccncc4)cc3C(=O)N([C@@H](C)CO)C[C@@H]2C)c1 do in these assays?
Vaccinia stage: -12.4; Vaccinia stage Venus: -2.8

What do the screens show for `COc1ccc(-c2ccc3c(c2)[C@@H]2[C@@H](CCN2C(=O)c2cccc(F)c2)[C@H](CO)N3)cc1`?
Vaccinia stage: -31.6; Vaccinia stage Venus: -19.1

What do the screens show for `O=C(C[C@H]1C[C@@H]2c3cc(NC(=O)c4cccnc4)ccc3O[C@@H]2[C@@H](CO)O1)NCc1ccccn1`?
Vaccinia stage: 10.7; Vaccinia stage Venus: 14.0

Results for CCC(=O)N1CCCCN2[C@H](CO)[C@@H](c3ccc(-c4cccc(C#N)c4)cc3)[C@@H]2C1 ?
Vaccinia stage: 2.5; Vaccinia stage Venus: -8.9

How did C[C@@H]1CN([C@H](C)CO)C(=O)c2cc(NC(=O)NC3CCCCC3)ccc2O[C@@H](C)CCCCO[C@@H]1CN(C)Cc1ccccc1 do in these assays?
Vaccinia stage: inconclusive

Results for O=C(NC1CCCC1)[C@@H]1[C@@H](CO)[C@@H]2Cn3c(ccc(-c4cccnc4)c3=O)[C@@H]2N1CC1CC1 ?
Vaccinia stage: 9.2; Vaccinia stage Venus: 5.9

What do the screens show for `CCC(=O)N[C@H]1CC[C@@H](CC(=O)NCc2ccccc2OC)O[C@H]1CO`?
Vaccinia stage: 3.4; Vaccinia stage Venus: 11.5

What do the screens show for `O=C(CCN1CCCCC1)N[C@@H]1CC[C@@H](CCNS(=O)(=O)c2ccc(F)cc2)O[C@@H]1CO`?
Vaccinia stage: 1.1; Vaccinia stage Venus: 6.9

Results for CCCN(C[C@H]1N[C@H](CO)[C@@H]1c1ccc(-c2cccnc2)cc1)C(C)=O ?
Vaccinia stage: -3.8&0.2; Vaccinia stage Venus: 12.5&5.3

How did Cn1cnc(S(=O)(=O)N2CC[C@@H]3[C@@H](CO)Nc4ccc(-c5cccc(F)c5)cc4[C@@H]32)c1 do in these assays?
Vaccinia stage: -10.5; Vaccinia stage Venus: -4.8

Results for COc1ccc(S(=O)(=O)N2CC[C@@H]3[C@H](CO)Nc4ccc(-c5ccc(C#N)cc5)cc4[C@@H]32)cc1 ?
Vaccinia stage: -13.6; Vaccinia stage Venus: -8.6

Results for CCCNC(=O)[C@H]1[C@H](CO)[C@H]2Cn3c(ccc(/C=C/c4ccccc4)c3=O)[C@@H]1N2C(C)=O ?
Vaccinia stage: 2.0; Vaccinia stage Venus: 6.5

Results for CN1C[C@H]2[C@@H](c3ccccc31)[C@H](CO)N2C(=O)C1CC1 ?
Vaccinia stage: 6.3; Vaccinia stage Venus: 8.6

Results for C[C@H](CO)N1C[C@H](C)[C@@H](CN(C)S(=O)(=O)c2cn(C)cn2)Oc2ccc(NC(=O)Cn3cnnn3)cc2C1=O ?
Vaccinia stage: 4.4; Vaccinia stage Venus: 9.6

How did O=C(Nc1ccc(C(F)(F)F)cc1)N[C@@H]1CC[C@H](CCn2cc(C3(O)CCCC3)nn2)O[C@H]1CO do in these assays?
Vaccinia stage: 27.2; Vaccinia stage Venus: 9.9

Results for O=C(N[C@@H]1CC[C@@H](CCNC(=O)C2CCCC2)O[C@@H]1CO)c1ccncc1 ?
Vaccinia stage: 3.4; Vaccinia stage Venus: -3.5

What do the screens show for `COC(=O)C[C@H]1C[C@@H]2c3cc(NC(=O)c4cccnc4)ccc3O[C@@H]2[C@H](CO)O1`?
Vaccinia stage: 20.7; Vaccinia stage Venus: 11.4

How did CCCC(=O)Nc1ccc2c(c1)C(=O)N(C)C[C@H](OC)[C@H](C)CN(CCC(F)(F)F)[C@@H](C)CO2 do in these assays?
Vaccinia stage: -1.3; Vaccinia stage Venus: -2.8

How did CO[C@H]1CN(C)C(=O)c2ccc(NC(=O)c3ccc4c(c3)OCO4)cc2OC[C@@H](C)N(CCC(F)(F)F)C[C@H]1C do in these assays?
Vaccinia stage: -24.5; Vaccinia stage Venus: -17.7

Results for CO[C@H]1CC[C@H]2CCN(C)C(=O)[C@@H](C)[C@@H](OC)CN(C)C(=O)c3cccc(C#N)c3OC[C@@H]1O2 ?
Vaccinia stage: 9.6; Vaccinia stage Venus: 6.8

What do the screens show for `CCCN(C)C[C@@H]1Oc2cc(C#C[C@H](C)O)ccc2S(=O)(=O)N([C@@H](C)CO)C[C@@H]1C`?
Vaccinia stage: -4.5; Vaccinia stage Venus: 0.5

Results for CC(C)C#Cc1cnc2c(c1)C(=O)N([C@H](C)CO)C[C@@H](C)[C@@H](CN(C)C(=O)c1ccc3c(c1)OCO3)O2 ?
Vaccinia stage: 2.6; Vaccinia stage Venus: 1.2

What do the screens show for `O=C(C[C@@H]1CC[C@@H]2[C@H](COC[C@@H](O)CN2CCC(F)(F)F)O1)NCC1CC1`?
Vaccinia stage: 0.1; Vaccinia stage Venus: -4.3

What do the screens show for `C[C@@H]1CN([C@H](C)CO)S(=O)(=O)c2ccc(C#CCN(C)C)cc2O[C@H]1CN(C)C`?
Vaccinia stage: 12.8; Vaccinia stage Venus: 3.8

What do the screens show for `O=C(C[C@H]1CC[C@H]2[C@@H](COC[C@@H](O)CN2C(=O)C2CC2)O1)NCc1ccncc1`?
Vaccinia stage: 3.6; Vaccinia stage Venus: 5.1

How did C[C@@H]1CCCCO[C@@H](CN(C)S(=O)(=O)c2ccc(Cl)cc2)[C@@H](C)CN([C@@H](C)CO)C(=O)c2cc(NC(=O)NC3CCCCC3)ccc2O1 do in these assays?
Vaccinia stage: -3.0; Vaccinia stage Venus: 1.1

What do the screens show for `CCC(=O)N1CCCCN2[C@H](CO)[C@H](c3ccc(/C=C/c4ccccc4)cc3)[C@@H]2C1`?
Vaccinia stage: -22.3; Vaccinia stage Venus: -23.4

What do the screens show for `CN(C)CC(=O)N[C@@H]1C[C@@H]2O[C@@H](CO)CC[C@@H]2O[C@@H]1CCc1ccc(C2=CCCCC2)cc1`?
Vaccinia stage: inconclusive

Results for CCNC(=O)c1cc2c(c(-c3cccc(-c4ccccc4F)c3)n1)[C@@H](CCO)N(C(=O)CC1CC1)C2 ?
Vaccinia stage: inconclusive

How did Cc1ccc(S(=O)(=O)Nc2cccc3c2O[C@@H](CN(C)C(=O)Nc2ccc(F)cc2)[C@H](C)CN([C@@H](C)CO)C3=O)cc1 do in these assays?
Vaccinia stage: 8.2; Vaccinia stage Venus: 3.2

How did C[C@@H]1CN([C@H](C)CO)C(=O)CCCn2nncc2CO[C@@H]1CN(C)C(=O)Oc1ccccc1 do in these assays?
Vaccinia stage: 16.3&10.2; Vaccinia stage Venus: 9.9&2.2

What do the screens show for `C[C@H](CO)N1C[C@H](C)[C@H](CN(C)C(=O)c2ccccc2)OCCCC[C@H](C)Oc2ccc(NC(=O)c3ccncc3)cc2C1=O`?
Vaccinia stage: 8.9; Vaccinia stage Venus: 2.9

A portion of the library. The share of hits here may be higher or lower than overall.
